TRPV1 potentiator: human TRPV1 potentiation; 320,000 tested, 0.02% active; Q8NER1; potentiation, % at 8.33 µM; AID 540277; TRPV1-expressing cells, Fluo-8 calcium influx, capsaicin EC20 potentiation; host cell line not named in the record; control for the full effect not named in the record; active means potentiation above 80%; inconclusive means 30% to 80%; inactive means below 30%; also: 0% is about no effect
Target sequence (Q8NER1 whole entry, looked up): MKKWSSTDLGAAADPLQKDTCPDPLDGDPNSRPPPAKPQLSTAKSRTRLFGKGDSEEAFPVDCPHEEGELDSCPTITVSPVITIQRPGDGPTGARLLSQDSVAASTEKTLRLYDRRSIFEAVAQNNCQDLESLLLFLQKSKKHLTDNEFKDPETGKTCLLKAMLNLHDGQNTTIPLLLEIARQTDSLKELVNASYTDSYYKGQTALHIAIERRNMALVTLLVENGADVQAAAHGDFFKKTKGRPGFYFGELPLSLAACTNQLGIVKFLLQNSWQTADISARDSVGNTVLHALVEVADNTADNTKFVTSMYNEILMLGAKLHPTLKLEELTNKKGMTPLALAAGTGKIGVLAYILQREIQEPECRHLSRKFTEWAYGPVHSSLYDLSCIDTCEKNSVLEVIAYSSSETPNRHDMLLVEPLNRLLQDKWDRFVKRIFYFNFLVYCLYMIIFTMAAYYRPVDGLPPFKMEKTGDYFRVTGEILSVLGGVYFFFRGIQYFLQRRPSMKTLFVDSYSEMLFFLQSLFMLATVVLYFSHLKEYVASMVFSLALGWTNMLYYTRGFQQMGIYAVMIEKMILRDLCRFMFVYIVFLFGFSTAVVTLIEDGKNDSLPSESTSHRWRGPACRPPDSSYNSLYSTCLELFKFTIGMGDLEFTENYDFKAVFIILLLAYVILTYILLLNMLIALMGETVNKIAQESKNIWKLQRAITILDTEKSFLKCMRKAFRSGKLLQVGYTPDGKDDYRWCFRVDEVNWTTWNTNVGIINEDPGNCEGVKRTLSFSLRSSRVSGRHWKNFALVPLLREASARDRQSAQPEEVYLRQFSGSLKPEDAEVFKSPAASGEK
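Fluo-8 calcium influx in TRPV1-expressing cells, kinetic read (ex 480/em 520 nm). Compound added and read 3 min for agonist activity, followed by capsaicin at EC20 final and 2 min further read for enhancement.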
ClpP mod: qHTS Assay for Activators of ClpP; purified B. subtilis ClpP, FRET peptide cleavage, 20 min; AID 651965, 2013; 340,000 tested, 1.9% active; Potency, µM (highest dose often 57.5 µM), for the others: top-dose activity change, negative = active; active = well fitted falling curve with a large enough effect; inconclusive = small, poorly fitted or top-dose-only effect; inactive = no such curve, though single readings can be large or run the other way; also: potency is read from the fitted curve at half-maximal effect; the source files actives as falling curves though it sought activators and does not explain the sign; nearly all actives have a fitted effect of over 65% in size; many hits overshoot -100%
Target sequence (P80244 whole entry, looked up): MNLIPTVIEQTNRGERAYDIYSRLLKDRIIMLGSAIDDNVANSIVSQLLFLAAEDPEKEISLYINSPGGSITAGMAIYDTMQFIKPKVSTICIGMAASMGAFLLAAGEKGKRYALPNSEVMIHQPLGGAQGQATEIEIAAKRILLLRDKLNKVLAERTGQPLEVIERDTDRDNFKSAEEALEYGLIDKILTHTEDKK
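Buffer: 100 mM Tris/HCl pH8, 100 mM KCl, 0.05% low protease BSA, 2.5% glycerol, 0.01% Tween-20. ClpP 10 microg/mL final; 20 min RT; delta FRET normalized to ADEP and DMSO controls.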
TRPML1 ag: agonists of human TRPML1 channel; TRPML1-expressing cells, Ca2+ dye fluorescence, FDSS; host cell line not named in the record; reference of the full effect not given here; 410,000 tested, 0.12% active; activation, % (test concentration not listed); Q9GZU1; in the data active = activation above about 50%; inconclusive = about 30% to 50%; inactive = below about 30%; also: 0% is about no effect; the text of the record puts the active cut at 80%
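Tetracycline-induced TRPML1-DL cells are seeded and incubated overnight before loading with a no-wash Ca2+ dye and quencher. Agonist activity is taken from the 110 s fluorescence read following compound pin-transfer on an FDSS, before EC80 54-4 challenge.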
Menin MLL FP FL: menin-MLL binding inhibition, fluorescein peptide; 290,000 tested, under 10 active; FP activity change, % at 61.4 µM; Fluorescence polarization, fluorescein-MLL peptide displacement from menin; inconclusive = falling polarisation curve, or a change in total fluorescence; inactive = total fluorescence flat and polarisation flat or rising; no compound was filed as active; the % refers to the polarisation; negative = inhibition;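 also: % of control where 0% means no effect; inhibitors lower the polarisation; unlabelled MLL peptide was the positive control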
PINK1 expr mod: changes PINK1 expression; PINK1 immunofluorescence, high-content cytometry, 24 h; Potency, µM (titrated, usually from 76.6 µM), without a hit: at the top dose activation (PINK1 increase), hits mostly activators; 410,000 tested, 0.2% active; AID 624263; active = well fitted activation curve with a large enough effect; inconclusive = small, poorly fitted or top-dose-only effect; inactive = flat fitted curve, though single readings scatter; cell line not stated here;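 also: potency is read from the fitted curve at half-maximal effect; % of control where 0% means no effect; nearly all actives have a fitted effect of over 65% in size; a mitochondrial uncoupler was the plate control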
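Compound titrations (5 concentrations, 24 h) on a stable cell line; DMSO and CCCP controls. Endpoint: fixed-cell PINK1 immunofluorescence with mitochondrial, cell and nuclear markers, scanned by microplate cytometer.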
TRPML1 inh: inhibitors of human TRPML1 channel; activity change, negative = inhibition, % (no concentration beside the values); 390,000 tested, 0.02% active; TRPML1-inducible cells, Ca2+ dye fluorescence, FDSS; active compounds read low; inhibition of EC80 agonist-evoked calcium signal; in the data active means activity change below about -50%; inconclusive means about -30% to -50%; inactive means above about -30%;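 also: stimulus is agonist 54-4 at its EC80 concentration; % is scaled to controls: 0 for no effect and ±100 for the full control effect; compound concentration not given in the record; the text of the record puts the active cut at -80%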
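Calcium fluorescence in TRPML1-DL cells induced overnight with Tet: a 110 s read after compound pin addition, then a 110 s antagonist read after challenge with 54-4 at 4 uM final (EC80).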
Sfp inh: blocks B. subtilis Sfp PPTase activity. Biochemical Sfp PPTase activity, qHTS. Potency, µM, inactives show max response, negative = inhibition, actives largely listed as inhibitors. 310,000 tested, 3.5% active; active = well fitted inhibition curve with a large enough effect; inconclusive = small, poorly fitted or top-dose-only effect, or another doubt; inactive = no such curve, though single readings can be large or run the other way;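 also: the enzyme is Sfp with the accession as filed and its product quenches rhodamine fluorescence; potency is read from the fitted curve at half-maximal effect; 0% = enzyme reaction without inhibitor and -100% = no enzyme wells; top concentration of the series not given in the record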
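After 15 min at room temperature with compound, 15 nM Sfp received 5 uM rhodamine-CoA plus 12.5 uM BHQ-2-ybbR (50 mM Hepes pH 7.6, 10 mM MgCl2). Rate came from the fluorescence difference over 30 min, ex 525/em 598 nm.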
An asterisk follows results filed as active; ? = inconclusive; · = not tested or not shown; & = joins results of further samples; [ ] = dose if it differs, or a comment.

SMILES | TRPV1 potentiator | ClpP mod | TRPML1 ag | Menin MLL FP FL | PINK1 expr mod | TRPML1 inh | Sfp inh
Oc1cccc(Nc2nc(-c3ccccc3Cl)nc3ccccc23)c1 | -13.7 | · | 3.9 | 6.5 | -1.3% | 7.2 | -2.3%
CC1CCN(S(=O)(=O)N2CCCC(C(=O)NCc3ccccc3Cl)C2)CC1 (stereo not drawn) | -3.2 | 1.0% | -0.2 | -1.7 | -1.1% | -6.5 | 7.6%
Cc1cc(C)c2oc(=O)cc(CN3CCCCC3)c2c1 | -14.9 | -6.7% | 1.6 | 5.5 | 1.4% | 9.0 | 3.1%
CCOC(=O)C1=C(C)N(CCCC(=O)O)C(=O)NC1c1ccc([N+](=O)[O-])cc1 (stereo not drawn) | 9.7 | 2.9% | 1.3 | -1.2 | -0.8% | -20.8 | -16.1%
O=C(CSc1nnc(CNC(=O)c2cccs2)o1)Nc1ccccc1C(F)(F)F | 1.9 | -1.5% | -0.7 | · | 1.2% | -6.0 | 12.6%
O=C(NCCN1CCOCC1)c1cc(Sc2ccccc2Cl)nc2ccccc12 | -1.7 | · | · | -0.3 | · | · | -12.1%
CCOC(=O)c1c(C)oc2nc(C)nc(NCC3CCN(Cc4cccc(Cl)c4)CC3)c12 | · | 0.6% | -0.4 | · | 3.4% | 4.4 | ·
Nn1c(SCc2cc([N+](=O)[O-])cc3c2OCOC3)nnc1-c1cccnc1 | 0.5 | · | 0.3 | 4.7 | -0.2% | -2.7 | 10.8%
CCc1c(C(=O)N/N=C/c2cn[nH]c2-c2ccc(F)cc2)csc1C | -4.1 | ? | 6.2 | 6.3 | 2.2% | 2.2 | -8.7%
Cc1ccc(N(CC(=O)Nc2ccc3c(c2)OCCO3)S(=O)(=O)c2c(C)n[nH]c2C)cc1 | 1.0 | -4.5% | 0.2 | 4.2 | -0.6% | -1.0 | 7.5%
CC(=O)c1cccc(NC(=O)CSCc2ccc(Br)cc2)c1 | -2.0 | -1.5% | 0.3 | 11.0 | 1.8% | 2.9 | 15.1%
CC(OC(=O)C1CSC2(c3ccc(F)cc3)CCC(=O)N12)C(=O)NC(N)=O (stereo not drawn) | 2.9 | · | -0.1 | 0.9 | 0.3% | 1.3 | 5.4%
Cc1ccc(-c2csc(NC(=O)CCCc3cccs3)n2)cc1 | 8.0 | -0.6% | 4.9 | 2.0 | 0.7% | 7.4 | 18.5%
Cc1nc2ncnn2c(C)c1Cc1ccc(Cl)cc1F | -2.1 | -1.6% | -0.8 | 1.1 | 0.6% | -5.9 | 5.6%
CN(C)S(=O)(=O)N1CCC(Oc2ccc(C(=O)NC3CCCCC3)cc2)CC1 | 10.0 | ? | -1.4 | 1.1 | 0.6% | -12.7 | 4.3%
CC(=O)C1=CCC(c2ccc(C)o2)N(S(=O)(=O)c2ccc(C)cc2)C1 (stereo not drawn) | · | 1.2% | -0.1 | · | 1.3% | · | ·
Cc1ncc(CO)c2c1Oc1nc(-c3ccccc3)nc(SCC(=O)Nc3cccc(O)c3)c1C2 | 10.9 | 0.5% | 0.0 | · | 2.0% | 13.6 | -8.0%
CCOC(=O)c1cc(CC)sc1NC(=O)COC(=O)c1ccccn1 | -12.9 | · | 3.0 | · | 3.3% | 0.0 | ·
CN(Cc1ccon1)C(=O)CC1C(=O)NCCN1Cc1ccc(F)c(F)c1 (stereo not drawn) | -1.8 | -18.6% | 0.3 | · | 1.7% | 3.0 | 3.6%
Cc1cccc(NCCC(=O)c2ccc(Br)cc2)c1 | -27.0 | 0.0% | -0.2 | 2.1 | · | 4.9 | 0.9%
Brc1ccc(-c2ccc(CNCCSc3nnnn3-c3ccccc3)o2)cc1 | · | -8.8% | 2.5 | · | -0.7% | 5.7 | ·
CCOc1ccc(S(=O)(=O)N2CCCCC2)cc1NC(=O)CN1CCCC1c1cccs1 (stereo not drawn) | -19.8 | 0.6% | 1.0 | · | 3.0% | 1.7 | ·
COCCN(C(=O)Cc1ccc(S(=O)(=O)N2CCOCC2)s1)c1c(N)n(CC(C)C)c(=O)[nH]c1=O | · | -4.3% | -0.1 | · | 0.7% | 4.9 | ·
CC1(C)CC(=O)C2=C(C1)Nc1ccccc1NC2c1ccc2c(c1)OCO2 (stereo not drawn) | 0.4 | -4.2% | -0.6 | 5.7 | 2.2%[38.3 µM] | 10.5 | 0.7%
CN(CC(=O)N1CCCC1)S(=O)(=O)c1ccc2ccccc2c1 | -5.9 | · | 0.6 | 0.9 | -1.6% | -18.0 | 26.1%
CCOc1ccccc1NC(=O)N1CCN(Cc2cc(=O)n3nc(-c4ccc(C)cc4)sc3n2)CC1 | · | -3.2% | -0.3 | · | 0.4% | 26.4 | ·
CC1=CC(C)(C)N2C(=O)C3(C(C#N)=C(N)OC4=C3C(=O)CC(C)(C)C4)c3cccc1c32 (stereo not drawn) | -8.6 | · | · | -2.5 | · | · | -18.6%
CCN(CC)CCCNC(=O)c1cc(-c2cccc(Cl)c2)on1 | 0.8 | -2.5% | -0.1 | 2.2 | -4.7%[38.3 µM] | -3.2 | 23.9%
CCn1c(SCC(=O)Nc2sc3c(c2C(N)=O)CCC(C)C3)nnc1-c1ccco1 (stereo not drawn) | 0.5 | -9.4% | -0.3 | 1.7 | -1.3% | -11.7 | 5.2%
CCN1C(=O)N[C@@H](c2ccc(Br)cc2)C(C(=O)OC)=C1C | 5.6 | 2.1% | -1.0 | 1.0&-4.1 | -0.1% | 18.6 | ?
N#CCSc1nnc(SCC#N)s1 | 3.9 | · | 0.0 | -0.3 | 0.7% | -2.0 | 9.3%
Nc1c(N)c2ccccc2oc1=O | -6.6 | -6.2% | 0.8 | -1.5 | · | -7.9 | ?
COc1nonc1NC(=O)CSc1nc2ccccc2[nH]1 | -4.5 | -0.6% | -0.1 | 2.3 | -1.2% | -23.4 | -3.7%
COc1cccc(CN2CCN(C(=O)c3cc(-c4cccnc4)nc4ccc(C)cc34)CC2)c1 | -27.3 | 0.9% | 0.4 | -2.3 | 2.7% | -5.2 | -15.8%
O=C(Nc1ccc(Cc2ccncc2)cc1)C1CC1 | -9.7 | -0.6% | 0.3 | 2.4 | 0.1%[38.3 µM] | -20.1 | 7.5%
Cc1ccc(C(=O)Cn2c(=N)n(N)c3ccccc32)cc1 | -4.6 | 1.0% | 0.6 | 3.6 | -0.4% | -1.4 | 5.3%
CC(/C=C/c1ccccc1)=N/NC(=O)c1nc2nc(C)cc(C)n2n1 | 27.0 | -14.6% | 3.6 | 0.1 | -0.9% | -8.6 | 17.2%
O=C1CCC(C(=O)Nc2cc(C(F)(F)F)ccc2-n2cncn2)=NN1 | 4.3 | -3.9% | 0.6 | -2.0 | 0.9% | -7.5 | 1.4%
O=c1[nH]c(=S)[nH]c2c1C(c1ccc(Br)cc1)c1c([nH]c(=S)[nH]c1=O)O2 | 0.3 | · | -0.5 | 3.5 | 0.8% | -1.2 | 44.7µM*
CC1=C(C(=O)Nc2ccccc2F)C(c2ccsc2)C2=C(CC(c3ccccc3)CC2=O)N1 (stereo not drawn) | -4.1 | ? | 0.5 | 2.0 | 9.4% | 44.8 | 19.1%
CCOc1ccc(Nc2ccc(S(=O)(=O)N3CCN(C)CC3)cc2[N+](=O)[O-])cc1OCC | 3.4 | 1.8% | -1.0 | · | 1.9% | -1.2 | ·
CC(=O)c1ccc(S(=O)(=O)N(CC(=O)NC2CC2)Cc2ccc(F)cc2)cc1 | 1.7 | · | 0.6 | · | -1.4% | 4.9 | ·
COc1ccc(-c2cc(C)nc3c(-c4ccc(OC)c(OC)c4)c(C)nn23)cc1 | · | -1.1% | -0.7 | · | 0.1% | 19.8 | ·
COc1ccc(OCC(=O)Nc2ccc(O)c(-c3nc4ccccc4s3)c2)cc1 | · | ? | -0.8 | · | 8.1% | -0.6 | ·
CCc1cc(CNC(=O)c2ccc(OC)c(OC3CCN(C(C)C)CC3)c2)on1 | -2.1 | -5.7% | -0.4 | -0.4 | 2.1% | -1.5 | 24.0%
Cc1ccc(S(=O)(=O)NCCCCCC(=O)Nc2nccs2)cc1 | -15.5 | -2.2% | 1.0 | 4.7 | -0.7% | -8.1 | 5.1%
O=C(O)c1ccc(Cn2cc(/C=C\[N+](=O)[O-])c3ccccc32)o1 | ? | -1.5% | -0.4 | 7.2 | 0.8% | -0.9 | -26.5%
COc1cccc(-c2nc3n(n2)C(c2ccc4c(c2)OCO4)C(C(N)=O)=C(C)N3)c1 (stereo not drawn) | 2.3 | -8.9% | 2.2 | 1.7 | -1.0% | -8.1 | -8.2%
CN1CC(=O)N(CC(=O)NCCc2ccc(F)cc2)c2ccccc2C1=O | 20.4 | 0.8% | -0.1 | 4.9 | -0.9% | -9.6 | 6.8%
CC(C)=CCC/C(C)=C/COc1c2ccoc2cc2oc(=O)ccc12 | -8.9 | · | 0.2 | · | 0.0% | 59.0 | ·
CC(C)Oc1ccc(S(=O)(=O)N2CCOCC2)cc1NC(=O)C1CCCC1 | -23.8 | 1.4% | 0.8 | · | -0.3% | -3.5 | ·
NNC(=O)c1cccnc1Oc1ccccc1 | -0.1 | · | 0.2 | 6.4 | 0.1% | 38.8 | 0.4%
CCOC1=C2[C@@H](CN(S(=O)(=O)c3ccccc3C)[C@H]2c2ccc(Cl)cc2)[C@H]2C(=O)NC(=O)[C@H]2C1 | · | -0.2% | -0.5 | · | -1.1% | · | ·
Oc1ccc(Br)cc1-c1nc2cnccn2c1NC1CCCCC1 | 6.0 | 0.2% | 0.2 | 8.2 | · | -13.1 | 7.3%
Cc1c(C(=O)NCc2ccccc2)cnn1-c1ccccc1 | -9.8 | -2.6% | -0.5 | 0.6 | -2.4% | -11.0 | 1.5%
COCCOC(=O)c1[nH]c2c(c1C)C(=O)CC(c1ccc(OC)cc1)C2 (stereo not drawn) | 14.6 | 0.4% | -0.9 | 4.8 | 5.9% | 13.2 | 3.3%
CSCCC(NC(=O)OC(C)(C)C)C(=O)NC(CC(C)C)C(N)=O (stereo not drawn) | -3.9 | -3.6% | 0.6 | 1.1 | -2.4% | -4.2 | 18.0%
CCN(CC)c1ccc(N=Cc2ccccc2[N+](=O)[O-])cc1 | 3.0 | -29.1% | -0.4 | 0.6 | 6.2% | -7.3 | 50.1µM*
CNc1ccccc1NC(=O)C1CCCN1C(=O)OCc1ccccc1 (stereo not drawn) | ? | -2.6% | 1.2 | · | 2.1% | 10.6 | 0.3%

Bioassay records deposited in PubChem BioAssay by National Center for Advancing Translational Sciences (NCATS).
